RE007 growth inh: qHTS Assay for Inhibitors of the HIV-1 protein Vpr; S. pombe RE007 Vpr strain, BacTiter-Glo ATP luminescence, 24 h; control for the full effect not named in the record; Potency, µM (highest dose often 92.2 µM), inactives show at the highest dose activity change, negative = less growth; hit rate 0.21% among 360,000; AID 651644, 2012; active = well fitted falling curve with a large enough effect; inconclusive = small, poorly fitted or top-dose-only effect; inactive = no such curve, though single readings can be large or run the other way;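 also: % is scaled to controls: 0 for no effect and ±100 for the full control effect; nearly all actives have a fitted effect of over 50% in size; the assay follows cell death caused by Vpr and the record does not say whether a fall means rescue or toxicity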
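Fission yeast RE007 carrying one integrated HIV-1 vpr copy, seeded at OD 0.01 in PMG+AL medium with 23 nL pinned compound. Grown 24 h at 30 degrees; viability read by BacTiter-Glo luminescence after 5 min.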
NS1 function inh: qHTS Assay for Inhibitors of Influenza NS1 Protein Function. S. cerevisiae slowed by influenza A NS1, growth recovery by OD600. Potency, µM (doses to about 46.1 µM), for the others: at the top dose activity, positive = more growth. hit rate 0.4% among 270,000; active means well fitted rising curve with a large enough effect; inconclusive means small, poorly fitted or top-dose-only effect; inactive means no such curve, though single readings can be large or run the other way; also: nearly all actives have a fitted effect of over 50% in size
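In this qHTS, NS1 from influenza A is expressed in budding yeast, where it slows growth. Cells are switched from glucose to 2% galactose medium (pH 6.0, -URA), treated with compound, and growth recovery is read at OD600.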
SARS PLP yeast: qHTS of Yeast-based Assay for SARS-CoV PLP | hit rate 0.19% among 330,000 | Potency, µM (titrated, usually from 32.9 µM), for inactives: at the top dose activity, positive = growth rescue | S. cerevisiae expressing SARS-CoV PLpro, growth rescue; control for the full effect not named in the record; active means well fitted rising curve with a large enough effect; inconclusive means small, poorly fitted or top-dose-only effect; inactive means no such curve, though single readings can be large or run the other way; also: 0% is about no effect; nearly all actives have a fitted effect of over 55% in size; growth read by luminescence after 48 h
MARV entry inh: qHTS for inhibitors of binding or entry into cells for Marburg Virus. Potency, µM (series often up to 37.8 µM), for the others: top-dose activity change, negative = inhibition, usual class: inhibitors. Marburg virus pseudotyped entry inhibition, cell reporter; control for the full effect not named in the record; about a third of the inactives were read at about 46 µM. hit rate 1.8% among 300,000. AID 540276, 2011; active = well fitted inhibition curve with a large enough effect; inconclusive = small, poorly fitted or top-dose-only effect, or effect the other way; inactive = flat fitted curve, though single readings scatter; tested in HEK293 cells; about a fifth of its hits are not listed in these tables; also: % is scaled to controls: 0 for no effect and ±100 for the full control effect; luciferase read-out
Lassa entry inh: qHTS for Inhibitors of binding or entry into cells for Lassa Virus | Lassa virus pseudotype entry inhibition, cell reporter; control for the full effect not named in the record | Potency, µM (top dose mostly 37.9 µM), inactives show top-dose activity change, negative = inhibition, hits mostly inhibitors | hit rate 1.2% among 300,000; active means well fitted inhibition curve with a large enough effect; inconclusive means small, poorly fitted or top-dose-only effect, or effect the other way; inactive means flat fitted curve, though single readings scatter; tested in HEK293 cells; also: % is scaled to controls: 0 for no effect and ±100 for the full control effect; nearly all actives have a fitted effect of over 50% in size; luciferase read-out
Cruzain inh noDet: qHTS Assay for Promiscuous and Specific Inhibitors of Cruzain (without detergent); AID 1476, 2009; Potency, µM, inactives show max response, negative = inhibition, usual class: inhibitors; purified cruzain, Z-FR-AMC fluorescence, no detergent; Cruzipain (Trypanosoma cruzi), P25779; hit rate 2.3% among 200,000;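 also: plate controls were enzyme without inhibitor for no effect and buffer without enzyme for full effect; nearly all actives have a fitted effect of over 40% in size; top concentration of the series not given in the record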
Target sequence (P25779 123-467 limits assumed): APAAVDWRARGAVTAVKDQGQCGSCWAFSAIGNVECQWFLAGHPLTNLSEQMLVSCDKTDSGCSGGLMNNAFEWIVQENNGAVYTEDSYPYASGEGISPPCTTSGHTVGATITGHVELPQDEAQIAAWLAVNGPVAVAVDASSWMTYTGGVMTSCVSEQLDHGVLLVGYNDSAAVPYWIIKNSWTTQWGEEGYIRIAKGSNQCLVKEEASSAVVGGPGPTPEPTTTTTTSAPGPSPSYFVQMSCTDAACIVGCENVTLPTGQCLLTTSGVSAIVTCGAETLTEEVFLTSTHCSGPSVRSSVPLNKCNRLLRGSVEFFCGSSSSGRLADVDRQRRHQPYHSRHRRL
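Purified cruzain at 1.5 nM, pre-incubated 15 min with compound at room temperature in 100 mM sodium acetate pH 5.5, 5 mM DTT, 0.00005% Triton X-100. Reaction started with 2 uM Z-FR-AMC; AMC fluorescence increase over 60 s gives rate.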
Cruzain inh Det: qHTS Assay for Promiscuous and Specific Inhibitors of Cruzain (with detergent); Potency, µM, without a hit: max response, negative = inhibition, usual class: inhibitors; purified cruzain, Z-FR-AMC fluorescence, 0.01% Triton; hit rate 0.43% among 200,000; AID 1478, 2009; Cruzipain (Trypanosoma cruzi), P25779;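 also: plate controls were neutral wells for no effect and buffer without enzyme for full effect; nearly all actives have a fitted effect of over 40% in size; top concentration of the series not given in the record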
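Enzyme 1.5 nM, Z-FR-AMC 2 uM, NaOAc 100 mM pH 5.5, DTT 5 mM, Triton X-100 0.01%; 15 min RT compound preincubation; kinetic ex360/em450, 60 s delta.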
StopGo reporter: High Throughput Screening for Foot and Mouth Disease Virus Antivirals | human cells with a luciferase reporter of 2A StopGo recoding; control for the full effect not named in the record | Potency, µM (titrated, usually from 57.9 µM), for the others: at the highest dose signal change, negative = less light | hit rate 1.2% among 410,000; active = well fitted falling curve with a large enough effect; inconclusive = small, poorly fitted or top-dose-only effect; inactive = no such curve, though single readings can be large or run the other way; tested in HEK293T cells; also: % is scaled to controls: 0 for no effect and ±100 for the full control effect; nearly all actives have a fitted effect of over 45% in size; luciferase light after 4 h
Starred values were filed as active, the others as inactive; ? = inconclusive; . = not tested or not shown; [ ] = another dose, or the depositor's remark. Unless noted, calls follow the shape of the dose curve; as a rule, active = well fitted curve in the direction sought with a large enough effect; inconclusive = small, poorly fitted or top-dose-only effect, or another doubt; inactive = no such curve, though single readings can be large; an effect the other way counts as inactive or inconclusive. Potency is read from the fitted curve at half-maximal effect.

SMILES	RE007 growth inh	NS1 function inh	SARS PLP yeast	MARV entry inh	Lassa entry inh	Cruzain inh noDet	Cruzain inh Det	StopGo reporter
Cc1ccc(SCc2nnc(N)s2)cc1	-4%	5%	13%	?	-4%	9%	-3.0%	-3%
COC(=O)c1cccc(NC(=O)CCNC(=O)c2ccco2)c1	26%	-1%	0%	2%[46.1 µM]	.	.	.	-2%
COc1ccc(NS(=O)(=O)c2cc3c4c(c2)CCN4C(=O)CC3)c(OC)c1	10%	.	-4%	?	?	.	.	65%[activator]
CS(=O)(=O)Nc1ccc(-c2cc(/C=C3\SC(N)=NC3=O)c[nH]c2=O)cc1	-5%	7%	1%	.	.	.	.	-13%
CC(NC(=O)COc1cccnc1[N+](=O)[O-])c1ccc(F)cc1 (stereo not given)	6%	2%	-1%	3%[46.1 µM]	2%[46.1 µM]	.	.	-12%
CCn1nnnc1NCc1cccn1C	-8%	19%	0%	6%	-3%	7%	7.8%	4%
Cc1cccc2[nH]c(SCC(=O)N3CCOCC3)nc12	2%	-4%	3%	.	.	.	.	36%[activator]
COc1ccc(CCNC(=O)C(=O)NCC2OCCN2S(=O)(=O)c2ccc(OC)cc2)cc1 (stereo not given)	-7%	-6%	4%	.	.	.	.	?
CC(=O)c1ccccc1NC(=O)COC(=O)c1ccccc1NC(=O)c1ccccc1	-23%	-3%	-16%	-12%	11%	0%	-7.8%	-3%
CC(C)(C)S(=O)(=O)c1cnc2c(-c3ccc(Cl)cc3)cnn2c1N	15%	6%	-2%	19%	?	?	-18%	27%
CCC(Cc1ccccc1)NC(=O)CCS(=O)(=O)c1cc2c(cc1Cl)NC(=O)CO2 (stereo not given)	.	.	.	.	-9%[46.1 µM]	8%	-1.3%	-19%
COC(=O)c1ccccc1NC(=O)c1cc(CN2CCCC2)on1	.	.	.	.	1%[46.1 µM]	-9%	-3.1%	-10%
CCN1CCN(C(c2ccc(OC)c(OC)c2)c2nnnn2C(C)(C)C)CC1 (stereo not given)	3%	-3%	-11%	?	5%	-14%	3.4%	0%
CCCCSc1nc(N)c(NC(=O)c2ccco2)c(=O)[nH]1	-5%	?	2%	.	.	-4%	-0.7%	-2%
CC(=O)c1ccc(S(=O)(=O)Nc2ccc(N3CCOCC3)cc2)cc1	15%	-8%	-1%	4%[46.1 µM]	2%[46.1 µM]	.	.	-2%
O=C(NCC1CCCO1)c1ccc(CS(=O)(=O)Cc2ccc(F)cc2)o1 (stereo not given)	1%	-4%	5%	-8%	8%	4%	-4.4%	0%
CCc1cccc(CC)c1NC(=O)c1ccccc1	1%	2%	1%	10%[46.1 µM]	30%[46.1 µM]	.	.	-7%
COc1ccc(NC(=O)COC(=O)CCCN2C(=O)c3ccccc3C2=O)cc1Cl	21%	-24%	?	5%	-6%	4%	-8.7%	-18%
Cc1ccc(C2(C)NC(=O)N(CC(=O)NCCN3C(=O)S/C(=C\c4cccnc4)C3=O)C2=O)cc1 (stereo not given)	-12%	.	.	.	?	.	.	-14%
COC(C(=O)N/N=C(\C)CC(=O)Nc1ccc(Cl)cc1C)c1ccccc1 (stereo not given)	8%	7%	-1%	-24%[46.1 µM]	.	.	.	-6%
CCc1c(C)sc(NC(=O)c2ccco2)c1C(=O)N1CCOCC1	2%	-5%	3%	-21%	6%	-12%	3.8%	12%
CC1CCCCC1NC(=O)Cn1c(CN2CCCCC2)nc2ccccc2c1=O (stereo not given)	-5%	3%	-19%	-12%	5%	5%	1.4%	.
Cc1ccc(NC(=O)CSc2nnc(CCC(=O)O)c(=O)[nH]2)cc1	-7%	-1%	1%	10%[46.1 µM]	-13%	.	.	1%
CCOc1ccc(CCNC(=O)C2CC(=O)N(Cc3ccc(C)cc3)C2)cc1OCC (stereo not given)	2%	.	-2%	2%	-11%	.	.	-8%
CC(=O)Nc1ccc(NC(=O)COc2cc(C)cc3oc(=O)cc(C)c23)cc1	-6%	5%	18%	.	.	.	.	8%
O=C(CSc1nc2ccsc2c(=O)n1-c1ccc(Br)cc1)NCc1ccc(Cl)cc1	.	.	.	.	2%[46.1 µM]	5%	-1.4%	0%
O=C(c1cc(-c2ccc(Br)cc2)on1)N1CCCC1	-10%	-10%	-5%	-1%[46.1 µM]	?	.	.	-28%
CC(C)(C)c1nnc(N/N=C/c2ccccc2)n(N)c1=O	.	?	-19%	?	-4%	10%	-2.2%	-25%
C/C(=N\NC(=O)C1(C)CC1(Br)Br)c1cccc(NC(=O)c2ccc(C)o2)c1 (stereo not given)	-4%	-34%	-8%	?	?	.	.	?
CNS(=O)(=O)c1ccc2c(c1)NC(=O)C1CCCN21 (stereo not given)	3%	8%	14%	?	35%	-4%	-5.1%	-12%
Cc1c(NC(=O)c2ccco2)cccc1-c1nc2cccnc2s1	-6%	-40%	-13%	.	.	-15%	-2.5%	-21%
CC(Cl)C(=O)c1ccc2c(c1)CCN2C(=O)C1CC1 (stereo not given)	13%	.	-3%	?	16%[46.1 µM]	.	.	-2%
COc1ccc(C=CC(=O)c2ccc([N+](=O)[O-])cc2)cc1	-10%	.	.	-1%[46.1 µM]	0%[46.1 µM]	.	.	24%
Cc1ccccc1C(=O)Nc1c2c(nn1C(C)(C)C)CS(=O)(=O)C2	17%	15%	-2%	-21%[46.1 µM]	-17%[46.1 µM]	.	.	-16%
CC1(N=Cc2cc(Cl)ccc2O)COP(=O)(Nc2ccccc2)OC1 (stereo not given)	9%	.	.	3%	10%	.	.	-8%
Clc1ccc(OCc2nc(-c3ccccn3)no2)c(Br)c1	-8%	-12%	-4%	?	9.2µM*	5%	-9.8%	-48%
CC(C)(C)C1CCc2oc3ccc(NS(=O)(=O)c4cc(Cl)ccc4Cl)cc3c2C1 (stereo not given)	.	.	.	.	-12%[46.1 µM]	4µM*	-2.1%	5%
O=C(CN1C(=O)NC2(CCCCC2)C1=O)N1CCN(S(=O)(=O)c2cccc(F)c2)CC1	-6%	-1%	7%	9%	-6%	.	.	-19%
Cc1nc(C)c(C(=O)Nc2cccc(C)c2C)o1	-10%	-5%	0%	?	2%	5%	-19%	-20%
CCN(CC)CCOc1ncnc2c1oc1ccccc12	-1%	-2%	-4%	23%	-4%	-1%	-0.8%	3%
CN1C(=O)c2ccccc2Sc2ccc(NC(=O)N3CCN(c4ccccc4)CC3)cc21	.	.	.	?	-22%[46.1 µM]	-5%	-1.2%	?
CN(C)CC#CCC(O)(c1ccccc1)C1CCCCC1 (stereo not given)	-3%	2%	-1%	.	.	.	.	-14%
Cc1ccc(C(=O)NNC(=O)CCOc2cccc(C)c2)cc1	?	.	4%	4%	3%	.	.	-9%
C[C@@H](Oc1ccccc1)c1nnn(Cc2ccccc2)c1-c1c([C@@H](C)Oc2ccccc2)nnn1Cc1ccccc1	1%	12%	-1%	.	.	.	.	-20%
CCN1CCN(C(=O)/C=C/c2c(F)cccc2Cl)CC1	?	-5%	2%	?	-2%	-11%	-4.6%	-5%
CCOc1ccc(NC(=O)CSc2nnc(Cn3c(=O)sc4ccccc43)n2C)cc1	9%	?	28%	.	.	19%	-4.3%	-3%
Cc1ccc(-c2c(C(=O)NNC(=S)NCC3CCCO3)csc2C)cc1 (stereo not given)	15%	-3%	0%	.	.	.	.	12%
CCN(Cc1ccccc1)Cc1cccc([N+](=O)[O-])c1	-8%	6%	3%	-2%	-3%	-2%	2.4%	-12%
Cc1c(Cl)c([N+](=O)[O-])nn1Cc1ccc(C(=O)Nc2ccc(Cl)cn2)o1	13%	19%	-38%	?	-3%	-25%	-6.3%	-22%
COc1ccc2c(c1)c(CC(=O)Nc1ccc(C)cc1)c(C)n2C(=O)c1ccc(Cl)cc1	2%	2%	1%	?	?	-63%	5.3%	0%
(cont.)
SMILES	RE007 growth inh	NS1 function inh	SARS PLP yeast	MARV entry inh	Lassa entry inh	Cruzain inh noDet	Cruzain inh Det	StopGo reporter
O=C(Nc1nccs1)NC1CCCCC1	-11%[3.69 µM]	6%	1%	13%	1%	5%	4.4%	33%[activator]
O=C(NCc1ccc(F)cc1)C(c1ccccc1)N(CC1CCCO1)C(=O)Cn1nnc2ccccc21 (stereo not given)	-5%	-2%	18%	-28%	7%	-2%	-2.0%	9%
CN(c1ccc(F)cc1)S(=O)(=O)c1ccc(Cl)c(C(=O)Nc2ccncc2)c1	-3%	.	-3%	-19%	1%	.	.	20µM*
O=C1CCCCCN1Cc1nnc(SCc2nc3ccccc3s2)n1-c1ccccn1	-12%	-1%	1%	23%	-8%	-17%	2.3%	94%[activator]
COc1ccc(-c2noc(CSc3nnc(-c4ccncc4)n3-c3ccccc3)n2)cc1	.	.	.	10%[46.1 µM]	-18%[46.1 µM]	11%	-6.4%	?
CCC(COC(=O)Nc1cccc(C)c1C)NC(=O)OCC(C)C (stereo not given)	11%	3%	-1%	-14%	12%[14.3 µM]	1%	-3.6%	-1%
Cc1ccc(CNC(=O)Cn2c3ncccc3c(=O)n2-c2ccc(C)cc2)cc1	.	.	.	.	20%[46.1 µM]	5%	-11%	0%
CC(=O)OCC(=O)Nc1ccccc1C	3%	.	0%	3%	2%	.	.	8%
CCOc1ccc(OCCCC(=O)N2CCN(S(=O)(=O)c3ccccc3C#N)CC2)cc1	11%	.	-6%	?	-16%	.	.	?
S=C(NCC1CCCO1)Nc1ccc(Cl)c(Cl)c1 (stereo not given)	-15%	7%	0%	.	.	.	.	50%[activator]
O=C(NCc1ccc(F)cc1)C(c1ccco1)N(C(=O)c1csnn1)c1ccccc1 (stereo not given)	8%	4%	0%	-21%[46.1 µM]	21%	.	.	16%
CCOC(=O)c1sc(NC(=O)CCN2CCCCCC2)c(C(=O)OCC)c1C	-6%	.	-12%	?	?	.	.	13%
COc1ccc(S(=O)(=O)NCCc2sc(-c3cccnc3)nc2C)cc1OC	.	.	.	.	-3%[46.1 µM]	-4%	-2.6%	37%[activator]

Bioassay records (PubChem BioAssay)
